Screening results (PubChem BioAssay)
MLL AF4-AF9 inh = inhibitors of AF4 peptide binding to AF9, primary screen, biochemical, AlphaScreen, biotin-AF4 peptide, FLAG-AF9, single point. inhibition, % at 10 µM. 0.47% of 350,000 active. AID 651704, 2012;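 active = every replicate reaching a set inhibition limit, whatever the replicate mean, cut at about 25% in these data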;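 also: 0% = plate neutral control median and 100% = total signal loss; the record names both 10 and 1 µM as test concentration; the first replicate is given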
E coli growth = E. coli growth inhibition, primary screen, OD600. Escherichia coli growth, 23 h; active compounds read low. OD600 absorbance (concentration not given with the values). 0.21% of 330,000 active. AID 1053175, 2014;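 active = OD600 absorbance below the run mean of sample wells minus 3.6 SD, in any replicate, cut at about 0.56 in these data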;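 also: stock transfer was 300 nL into about 60 µL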
ALR inh = inhibitors of human ALR sulfhydryl oxidase, primary screen, biochemical, H2O2 detection, HRP-luminol luminescence, single point; inhibition, % (concentration not given with the values); purified ALR, DTT oxidation; 3.8% of 290,000 active; AID 485317, 2010;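 active = mean and each replicate at 75% or more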;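 also: stock transfer was 7.5 nL into about 7.5 µL; 0% = neutral wells and 100% = wells with inactivated enzyme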
Target sequence (P55789 whole entry, looked up): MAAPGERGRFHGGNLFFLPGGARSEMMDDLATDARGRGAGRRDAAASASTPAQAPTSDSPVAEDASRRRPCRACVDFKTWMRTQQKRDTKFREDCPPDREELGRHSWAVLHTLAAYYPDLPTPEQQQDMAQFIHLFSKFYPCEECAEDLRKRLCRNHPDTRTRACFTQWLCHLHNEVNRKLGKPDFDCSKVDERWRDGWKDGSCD
Vif TR-FRET = inhibitors of Vif binding to APOBEC3G peptide, primary screen, biochemical, TR-FRET, GST-Vif 1-94, biotin-A3G peptide, dose response retest (AID 1117319); Virion infectivity factor (Human immunodeficiency virus type 1 group M subtype B (isolate …; 0.57% of 260,000 active; one-dose inhibition, %; IC50 in µM for titrated hits; TR-FRET GST-Vif / biotin-A3G peptide binding; higher % means a stronger effect; test concentration not given here; strong numbers were not always called active;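 active = above the screen mean plus three standard deviations and confirmed in dose response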;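 also: Vif residues 1-94 fused to GST binding biotinylated APOBEC3G peptide 110-148; 0% = full assay without inhibitor and 100% = GST in place of GST-Vif; retest series ran down from 100 µM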
FGF22 binding = binders of human FGF22 protein, primary screen, FGF22 synaptogenesis inhibitor project, biophysical, thermal shift, single point; Fibroblast growth factor 22 (Homo sapiens), Q9HCT0; recombinant FGF22 thermal shift, SYPRO orange fluorescence; percent of sucrose octasulfate shift, DMSO zero; calls only at 9.99 µM; 1.5% of 340,000 active;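 active = melting point raised past a set limit in the mean and every replicate; three in four hits are not shown here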
Target sequence (Q9HCT0 whole entry, looked up): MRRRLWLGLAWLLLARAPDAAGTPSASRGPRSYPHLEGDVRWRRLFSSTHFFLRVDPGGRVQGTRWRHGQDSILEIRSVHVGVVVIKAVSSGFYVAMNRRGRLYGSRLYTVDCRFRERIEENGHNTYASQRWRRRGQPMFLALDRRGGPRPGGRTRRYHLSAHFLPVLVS
rRNA inh HTS = reduced GFP signal of wild-type E. coli, primary screen, bacterial rRNA inhibitor project, GFP/RFP fluorescence, OD600, single point; GFP signal change (wild-type ribosome), % (test concentration not listed); 1.6% of 350,000 active; E. coli WT GFP vs humanized-ribosome RFP mutants, 24 h; active compounds read low; DMSO median 0, no signal -100;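 active = significant combined selectivity score with lowered wild-type GFP, culture density cut under 30%, mutant RFP and density less affected; inactive = any of these conditions unmet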; also: one replicate is shown; some compounds called inactive have numbers as strong as hits
HNF4A DNA FP = change in binding of human HNF4A to DNA, primary screen, biochemical, fluorescence polarization, FITC-DNA; Hepatocyte nuclear factor 4-alpha (Homo sapiens), P41235; 1 h; activity change, % at 10 µM; 0.3% of 360,000 active; in the data active = activity change above about 30%, passing the limit was not always enough;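 also: controls were the assay level and a saturating level of protein; the project sought stronger binding though the title names inhibitors; some compounds called inactive have numbers as strong as hits; positive values seem to mean higher polarization but the record does not say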
Target sequence (P41235 whole entry, looked up): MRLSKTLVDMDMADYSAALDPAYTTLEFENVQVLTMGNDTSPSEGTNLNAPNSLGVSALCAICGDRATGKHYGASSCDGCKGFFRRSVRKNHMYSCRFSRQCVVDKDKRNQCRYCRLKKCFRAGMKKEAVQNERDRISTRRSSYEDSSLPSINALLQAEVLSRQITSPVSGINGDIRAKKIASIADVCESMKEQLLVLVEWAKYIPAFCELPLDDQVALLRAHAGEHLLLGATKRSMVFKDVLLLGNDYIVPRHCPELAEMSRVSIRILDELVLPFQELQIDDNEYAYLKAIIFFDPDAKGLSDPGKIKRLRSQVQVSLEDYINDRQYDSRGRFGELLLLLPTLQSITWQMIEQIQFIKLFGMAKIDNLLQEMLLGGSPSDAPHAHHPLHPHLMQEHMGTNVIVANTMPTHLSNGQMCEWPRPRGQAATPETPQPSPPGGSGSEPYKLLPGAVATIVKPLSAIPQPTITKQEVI
rRNA inh HTS OD600 = also measured in rRNA inh HTS; calls as there; OD600 change, %; measured here: OD600 growth;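 optical density of the mix in the first replicate; 0 = DMSO median and -100 = no signal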
rRNA inh HTS RFP = also measured in rRNA inh HTS; calls as there; RFP signal change, %; measured here: RFP humanized mutant strains;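 first replicate; 0 = DMSO median and -100 = no signal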
An asterisk follows results filed as active; & = joins results of further samples.

How did O=C(C1CCOCC1)N1C[C@H]2[C@@H](c3ccccc31)[C@@H](CO)N2Cc1ccccc1Cl do in these assays?
MLL AF4-AF9 inh: -2.7; FGF22 binding: inactive; rRNA inh HTS: -7; rRNA inh HTS OD600: -8; rRNA inh HTS RFP: 0.8

What do the screens show for `O=S(=O)(NC[C@@H]1[C@@H](c2ccccc2)[C@@H](CO)N1CC1CC1)c1ccccc1`?
MLL AF4-AF9 inh: -0.5; FGF22 binding: inactive; rRNA inh HTS: 1; rRNA inh HTS OD600: 4; rRNA inh HTS RFP: -0.1

How did CCN(CC)CCNC(=O)C1CCCCN1S(=O)(=O)c1cccc([N+](=O)[O-])c1 (centres undefined) do in these assays?
MLL AF4-AF9 inh: -0.8; E coli growth: 0.71; Vif TR-FRET: 12%; FGF22 binding: inactive; rRNA inh HTS: 20; HNF4A DNA FP: -1.4; rRNA inh HTS OD600: 12; rRNA inh HTS RFP: -1.7

How did CN(C)CCCC(C)(O)C(C)(C)c1ccccc1 (centres undefined) do in these assays?
E coli growth: 0.67; ALR inh: -1; Vif TR-FRET: 24%; HNF4A DNA FP: -0.8

What do the screens show for `NC(=O)Cn1cc(/C=N/NC(=O)c2ccc(Cn3cc(Cl)cn3)o2)c(-c2ccccc2)n1`?
MLL AF4-AF9 inh: -3.3; ALR inh: -12; FGF22 binding: inactive; rRNA inh HTS: 12; HNF4A DNA FP: -1.4; rRNA inh HTS OD600: 16; rRNA inh HTS RFP: -0.5

How did COc1cc2c(cc1OC)/C(=C/C(=O)c1cccc([N+](=O)[O-])c1)NCC2 do in these assays?
MLL AF4-AF9 inh: 15; E coli growth: 0.72; ALR inh: -1; Vif TR-FRET: -13%; FGF22 binding: inactive; rRNA inh HTS: -7; HNF4A DNA FP: -0.6; rRNA inh HTS OD600: -1; rRNA inh HTS RFP: -8.6

What do the screens show for `Fc1ccccc1Cc1noc(CN2CCN(c3ccc(Cl)cn3)CC2)n1`?
MLL AF4-AF9 inh: 0.5; E coli growth: 0.71; ALR inh: -15; rRNA inh HTS: -37; HNF4A DNA FP: -1.1; rRNA inh HTS OD600: -39; rRNA inh HTS RFP: -4.0

Results for Cc1ccc(CNC(=O)CSCc2ccccc2)cc1 ?
MLL AF4-AF9 inh: -1.7; E coli growth: 0.66; Vif TR-FRET: -5%; rRNA inh HTS: -7; HNF4A DNA FP: 3.0; rRNA inh HTS OD600: -11; rRNA inh HTS RFP: -1.7

What do the screens show for `Cc1ccc(Sc2ncccc2C(=O)NCC(c2ccc(F)cc2)N2CCOCC2)cc1C` (centres undefined)?
MLL AF4-AF9 inh: -14; E coli growth: 0.66; ALR inh: -5; Vif TR-FRET: -4%; FGF22 binding: inactive; rRNA inh HTS: 13; HNF4A DNA FP: -0.5; rRNA inh HTS OD600: 8; rRNA inh HTS RFP: 13

What do the screens show for `O=S(=O)(NC1CC1)c1cccc(S(=O)(=O)N2CCCC2)c1`?
E coli growth: 0.76; Vif TR-FRET: -4%; HNF4A DNA FP: -0.7

How did O=C(NCc1ccccc1F)C(=O)NCC1OCCCN1S(=O)(=O)c1cccs1 (centres undefined) do in these assays?
MLL AF4-AF9 inh: -1.0; E coli growth: 0.71; ALR inh: 3; Vif TR-FRET: -1%; FGF22 binding: inactive; rRNA inh HTS: 2; HNF4A DNA FP: 1.1; rRNA inh HTS OD600: 5; rRNA inh HTS RFP: -0.5

How did C#CCOCCOCCOCCNc1nc(N2CCN(C(=O)[C@H](CCCN=C(N)N)n3cc(C(N)[C@@H](C)CC)nn3)CC2)nc(N2CCN(C(=O)[C@H](CCCCN)n3cc([C@@H](N)[C@H](C)CC)nn3)CC2)n1 (some centres undefined) do in these assays?
MLL AF4-AF9 inh: 46*; ALR inh: 0; FGF22 binding: inactive; rRNA inh HTS: -16; HNF4A DNA FP: 31; rRNA inh HTS OD600: -19; rRNA inh HTS RFP: 11

How did CCCc1nc2oc3c(NCCOCCO)ncnc3c2c2c1COC(C)(C)C2 do in these assays?
E coli growth: 0.72; ALR inh: 1; Vif TR-FRET: -17%&-9%; HNF4A DNA FP: 1.2

Results for Cc1csc2nc(NC(=O)c3ccccc3)sc(=O)c12 ?
MLL AF4-AF9 inh: -0.2; E coli growth: 0.67; Vif TR-FRET: -18%; FGF22 binding: inactive; rRNA inh HTS: 1; HNF4A DNA FP: -2.7; rRNA inh HTS OD600: 6; rRNA inh HTS RFP: -1.2

Results for COc1ccc(CC(NC(C)=O)C(=O)NC2CCN(C(=O)NCc3ccccc3)CC2)cc1OC (centres undefined) ?
E coli growth: 0.66; Vif TR-FRET: 1%&1%; HNF4A DNA FP: 11

An excerpt of the results above, for reference:
How did C#CCOCCOCCOCCNc1nc(N2CCN(C(=O)[C@H](CCCN=C(N)N)n3cc(C(N)[C@@H](C)CC)nn3)CC2)nc(N2CCN(C(=O)[C@H](CCCCN)n3cc([C@@H](N)[C@H](C)CC)nn3)CC2)n1 (some centres undefined) do in these assays?
MLL AF4-AF9 inh: 46*; ALR inh: 0; FGF22 binding: inactive; rRNA inh HTS: -16; HNF4A DNA FP: 31; rRNA inh HTS OD600: -19; rRNA inh HTS RFP: 11

How did CCCc1nc2oc3c(NCCOCCO)ncnc3c2c2c1COC(C)(C)C2 do in these assays?
E coli growth: 0.72; ALR inh: 1; Vif TR-FRET: -17%&-9%; HNF4A DNA FP: 1.2

Results for Cc1csc2nc(NC(=O)c3ccccc3)sc(=O)c12 ?
MLL AF4-AF9 inh: -0.2; E coli growth: 0.67; Vif TR-FRET: -18%; FGF22 binding: inactive; rRNA inh HTS: 1; HNF4A DNA FP: -2.7; rRNA inh HTS OD600: 6; rRNA inh HTS RFP: -1.2

Results for COc1ccc(CC(NC(C)=O)C(=O)NC2CCN(C(=O)NCc3ccccc3)CC2)cc1OC (centres undefined) ?
E coli growth: 0.66; Vif TR-FRET: 1%&1%; HNF4A DNA FP: 11

Next section
How did Cn1cnnc1SCc1ccccc1Br do in these assays?
E coli growth: 0.74; ALR inh: -8; Vif TR-FRET: 3%; HNF4A DNA FP: 1.2

How did Cc1ccc(S(=O)(=O)N2CCN(C(=O)COC(=O)CCOc3ccccc3)CC2)c(C)c1 do in these assays?
MLL AF4-AF9 inh: -0.7; E coli growth: 0.66; ALR inh: -2; Vif TR-FRET: -6%; FGF22 binding: inactive; rRNA inh HTS: -12; HNF4A DNA FP: -0.3; rRNA inh HTS OD600: -11; rRNA inh HTS RFP: -0.8

How did CC(C)c1ccc(NC(=O)C(c2ccccc2)N(C)C(=O)CCc2c[nH]c3ccccc23)cc1 (centres undefined) do in these assays?
MLL AF4-AF9 inh: -10; ALR inh: -1; FGF22 binding: inactive; rRNA inh HTS: 6; HNF4A DNA FP: 3.1; rRNA inh HTS OD600: -3; rRNA inh HTS RFP: -3.2

How did Cn1cnc2c(=O)[nH]cc([N+](=O)[O-])c21 do in these assays?
MLL AF4-AF9 inh: -1.3; E coli growth: 0.68; ALR inh: -28; Vif TR-FRET: -4%; FGF22 binding: inactive; rRNA inh HTS: 15; HNF4A DNA FP: -0.6; rRNA inh HTS OD600: 8; rRNA inh HTS RFP: 4.4

What do the screens show for `COc1ccc(OC)c(C(=O)CN2C(=O)NC(C)(c3ccccc3)C2=O)c1` (centres undefined)?
E coli growth: 0.68; ALR inh: -4; Vif TR-FRET: 25%; HNF4A DNA FP: -2.5

What do the screens show for `COc1ccc(NC(=O)N2C[C@@H](O)COC[C@@H]3O[C@H](CC(=O)N4CCN(C)CC4)CC[C@H]32)cc1`?
MLL AF4-AF9 inh: -4.2; FGF22 binding: inactive; rRNA inh HTS: 6; rRNA inh HTS OD600: 11; rRNA inh HTS RFP: -3.1

Results for NC(=O)COc1ccc(NS(=O)(=O)Cc2ccccc2)cc1 ?
MLL AF4-AF9 inh: 1.9; E coli growth: 0.68; ALR inh: -15; FGF22 binding: inactive; rRNA inh HTS: 22; HNF4A DNA FP: 0.5; rRNA inh HTS OD600: 9; rRNA inh HTS RFP: 0.8

How did CCCCCCC1CC(CCc2nc(=S)[nH][nH]2)C(=O)O1 (centres undefined) do in these assays?
E coli growth: 0.69; ALR inh: 2; Vif TR-FRET: -1%; HNF4A DNA FP: -0.5

What do the screens show for `Cc1cnc(C(=O)OCC(=O)C23CC4CC(CC(C4)C2)C3)cn1`?
MLL AF4-AF9 inh: 0.3; E coli growth: 0.7; ALR inh: -1; FGF22 binding: inactive; rRNA inh HTS: 2; HNF4A DNA FP: -0.6; rRNA inh HTS OD600: 1; rRNA inh HTS RFP: -1.5

Results for COc1ccc(S(=O)(=O)Nc2ccc3c(c2)C(=O)N([C@H](C)CO)C[C@H](C)[C@@H](CN(C)C(=O)NC(C)C)O3)cc1 ?
ALR inh: -1; FGF22 binding: inactive; rRNA inh HTS: 1&-5; HNF4A DNA FP: -5.1; rRNA inh HTS OD600: 6&-7; rRNA inh HTS RFP: -0.2&3.1

How did CS(=O)(=O)N1CCN=C1SCc1ccccc1 do in these assays?
MLL AF4-AF9 inh: 0.2; E coli growth: 0.71; ALR inh: -3; FGF22 binding: inactive; rRNA inh HTS: 18; HNF4A DNA FP: -0.4; rRNA inh HTS OD600: 14; rRNA inh HTS RFP: -0.3

How did CCOC(=O)C1=C(O)/C(=C/c2ccc(OCC(=O)O)c(OCC)c2)SC1=Nc1ccc(C)cc1 do in these assays?
MLL AF4-AF9 inh: 3.9; E coli growth: 0.7; ALR inh: 21; Vif TR-FRET: 7%; FGF22 binding: inactive; rRNA inh HTS: -16; HNF4A DNA FP: -1.6; rRNA inh HTS OD600: -11; rRNA inh HTS RFP: 0.7

What do the screens show for `O=C(NCCCN1CCOCC1)c1ccc2c(=O)n(Cc3ccccc3)c(=S)[nH]c2c1`?
MLL AF4-AF9 inh: -0.1; E coli growth: 0.62; ALR inh: 10; Vif TR-FRET: -10%; FGF22 binding: inactive; rRNA inh HTS: 3; HNF4A DNA FP: 0.7; rRNA inh HTS OD600: 7; rRNA inh HTS RFP: 0.9

Results for Cc1ccc(-c2nn(-c3ccccc3)cc2/C=C2\SC(=S)N(CC(=O)O)C2=O)cc1 ?
MLL AF4-AF9 inh: 0.3; E coli growth: 0.69; ALR inh: 55; Vif TR-FRET: -2%; rRNA inh HTS: 10; HNF4A DNA FP: -9.5; rRNA inh HTS OD600: 2; rRNA inh HTS RFP: -2.6

How did O=C(O)c1cccc(Oc2ccccc2[N+](=O)[O-])c1 do in these assays?
E coli growth: 0.67; ALR inh: -14; Vif TR-FRET: -2%; HNF4A DNA FP: -2.1

How did COc1ccc(CNC(=O)C(=O)NCC2OCCN2C(=O)c2ccc(OC)cc2)cc1 (centres undefined) do in these assays?
MLL AF4-AF9 inh: -0.7; E coli growth: 0.71; ALR inh: -2; FGF22 binding: inactive; rRNA inh HTS: 9; HNF4A DNA FP: -1.1; rRNA inh HTS OD600: 12; rRNA inh HTS RFP: 1.4

Results for CCOc1ccccc1-c1nc(CN2CCCC2c2nccs2)c(C)o1 (centres undefined) ?
MLL AF4-AF9 inh: 1.2; E coli growth: 0.67; ALR inh: 5; Vif TR-FRET: -1%; FGF22 binding: inactive; rRNA inh HTS: -5; HNF4A DNA FP: -0.7; rRNA inh HTS OD600: -5; rRNA inh HTS RFP: 2.4

These rows are one share of the data. The share of hits here may be higher or lower than overall.
